Assay outcomes deposited in PubChem by National Center for Advancing Translational Sciences (NCATS).
TRPML1 ag – agonists of human TRPML1 channel. TRPML1-expressing cells, Ca2+ dye fluorescence, FDSS; host cell line not named in the record; reference of the full effect not given here. 0.12% of 410,000 active. Q9GZU1. activation, % (concentration not given with the values); in the data active = activation above about 50%; inconclusive = about 30% to 50%; inactive = below about 30%; note: 0% is about no effect; the text of the record puts the active cut at 80%
Target sequence (Q9GZU1 whole entry, looked up): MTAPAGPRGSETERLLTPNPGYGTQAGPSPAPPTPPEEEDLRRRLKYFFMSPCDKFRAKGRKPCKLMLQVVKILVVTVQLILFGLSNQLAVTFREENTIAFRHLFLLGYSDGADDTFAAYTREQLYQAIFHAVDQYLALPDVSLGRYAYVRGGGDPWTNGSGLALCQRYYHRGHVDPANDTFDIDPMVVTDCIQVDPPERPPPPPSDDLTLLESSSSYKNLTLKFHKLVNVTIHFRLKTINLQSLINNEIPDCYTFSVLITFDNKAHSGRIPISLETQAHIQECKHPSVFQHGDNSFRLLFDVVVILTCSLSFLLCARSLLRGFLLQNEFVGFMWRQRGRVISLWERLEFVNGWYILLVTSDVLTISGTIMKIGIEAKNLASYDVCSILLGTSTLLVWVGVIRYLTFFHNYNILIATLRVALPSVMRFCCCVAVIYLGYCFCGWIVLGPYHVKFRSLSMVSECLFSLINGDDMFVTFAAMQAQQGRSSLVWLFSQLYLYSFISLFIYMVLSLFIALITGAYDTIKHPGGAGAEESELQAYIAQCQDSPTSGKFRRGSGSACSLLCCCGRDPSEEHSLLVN
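Agonist activity was taken from a 110 s kinetic Ca2+ dye read on the FDSS after pinning compounds onto TRPML1-DL cells. The cells were seeded at 1,500/well with Tet inducer, incubated about 16 h, then dye-loaded at room temperature.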
D2 ag – activates the human D2 dopamine receptor. P14416. DiscoveRx PathHunter D2 beta-arrestin, luminescence, 90 min; 100% = 57 uM dopamine signal. activation, % (test concentration not listed). 0.084% of 360,000 active; in the data active = activation above about 40%; inconclusive = about 15% to 40%; inactive = below about 15%; note: compound concentration not given in the record; the text of the record calls up to 30% inactive
Target sequence (P14416 whole entry, looked up): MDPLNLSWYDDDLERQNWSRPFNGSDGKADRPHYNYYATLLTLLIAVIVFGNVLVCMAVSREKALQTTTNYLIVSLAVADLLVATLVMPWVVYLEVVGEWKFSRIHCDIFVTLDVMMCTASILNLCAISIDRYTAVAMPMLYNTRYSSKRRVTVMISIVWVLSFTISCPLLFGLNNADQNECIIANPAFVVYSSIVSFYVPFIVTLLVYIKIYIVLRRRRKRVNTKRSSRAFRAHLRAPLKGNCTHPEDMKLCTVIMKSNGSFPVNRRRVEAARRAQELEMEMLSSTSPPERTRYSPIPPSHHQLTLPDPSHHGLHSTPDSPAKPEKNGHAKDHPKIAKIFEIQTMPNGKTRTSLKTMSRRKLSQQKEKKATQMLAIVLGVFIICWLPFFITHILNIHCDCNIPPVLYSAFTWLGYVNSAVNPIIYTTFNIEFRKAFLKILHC
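Agonist mode: compounds alone added to overnight-plated D2 PathHunter cells for 90 min at 37 C, with 57 uM final dopamine (EC100) defining full response. Beta-arrestin recruitment detected by chemiluminescent reagent, read after 1 h at ambient temperature.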
Six1-Eya2 inh – inhibitors of human Six1/Eya2 interaction | AID 651725 | AlphaScreen GST-Six1/His-Eya2 binding, biochemical; stronger effect = lower value; control for the full effect not named in the record | 0.56% of 360,000 active | activity change, % (no concentration beside the values); in the data active = activity change below about -65%; inconclusive = about -30% to -65%; inactive = above about -30%; note: % is set by controls: 0 for no effect and ±100 for the full control effect; compound concentration not given in the record
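Homogeneous AlphaScreen proximity assay pairing GST-Six1 with His-tagged Eya2 (added as 5X mix: 250 nM and 500 nM) in 50 mM Tris pH 8.0, 300 mM NaCl, 1 mM TCEP. Glutathione donor and nickel acceptor beads; 1 h, 37 °C, dark.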
PINK1 modulator – changes PINK1 expression; 0.2% of 410,000 active; Potency, µM (series often up to 76.6 µM), for inactives: top-dose activation (PINK1 increase), actives largely listed as activators; PINK1 immunofluorescence, high-content cytometry, 24 h; active = well fitted activation curve with a large enough effect; inconclusive = small, poorly fitted or top-dose-only effect; inactive = flat fitted curve, though single readings scatter; cell line not stated here;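 note: potency is the fitted concentration of half-maximal effect; % of control where 0% means no effect; nearly all actives have a fitted effect of over 65% in size; a mitochondrial uncoupler was the plate control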
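Stable cell line treated 24 h with compounds at 5 concentrations (CCCP controls), then fixed and immunostained for PINK1 plus nuclear and cell stains; PINK1 immunofluorescence quantified by laser-scanning microplate cytometry.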
CtBP-E1A inh – blocks the CtBP interaction with E1A; AlphaScreen GST-E1A/His-CtBP binding, 1536-well; stronger effect = lower value; control for the full effect not named in the record; activity change, % (concentration not given with the values); 0.49% of 340,000 active; AID 651724; in the data active means activity change below about -65%; inconclusive means about -30% to -65%; inactive means above about -30%; note: % is set by controls: 0 for no effect and ±100 for the full control effect
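Protein mix (5X: 125 nM each GST-E1A, His-CtBP) was incubated with pinned compound 2 h at 37 deg C in dark, in 50 mM Tris pH 8.0 buffer with 300 mM NaCl. Glutathione donor and nickel acceptor beads followed; AlphaScreen signal read after 1 h.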
D2 PAM – potentiates the human D2 dopamine receptor allosterically; P14416; DiscoveRx D2 beta-arrestin cells, luminescence, 90 min; 100% = 57 uM dopamine signal; potentiation, % (concentration not given with the values); 0.23% of 360,000 active; AID 624464; active = potentiation of 50% or more; inconclusive = 30% to 50%; inactive = 30% or less;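 note: compound concentration not given in the record; tested on top of an EC20 dose of dopamine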
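D2 cells co-treated with compound plus 50 nM dopamine (EC20) for 90 min at 37 deg C to detect potentiation. Beta-arrestin recruitment was read as enzyme-fragment luminescence after 1 h at ambient temperature. Full response was set by 57 uM dopamine.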
Numbers without * were called inactive; ? = inconclusive; nt = no result given; [ ] = remark or other dose. Compounds as they come; any-hit rate near 1.3%.

SMILES | TRPML1 ag | D2 ag | Six1-Eya2 inh | PINK1 modulator | CtBP-E1A inh | D2 PAM
O=C(CCN1C(=O)/C(=C/c2ccccc2Cl)SC1=S)NCCc1ccc(O)cc1 | -1.0 | -2.0 | -7.2 | 4.9% | -1.6 | -7.6
CCCCCCNC(=O)C(=O)NCCc1ccc(Cl)cc1 | -0.5 | 5.5 | 7.4 | 5.2% | 10.7 | 12.9
COCCN1Cc2cccc(C(=O)NCc3cccnc3)c2C1=O | -0.4 | 1.9 | 13.6 | 0.1% | 3.8 | -7.7
O=C(COC(=O)c1cc(Br)ccc1Cl)NC1CCCC1 | 0.9 | 3.4 | 2.5 | 1.3% | 7.1 | 2.5
COc1ccc(N/N=C(\C#N)C(=O)NCCc2ccc(OC)c(OC)c2)cc1 | 1.3 | -0.6 | -8.6 | 0.4% | -12.2 | 2.2
NS(=O)(=O)c1ccc(CCNc2ncnc3c2c(-c2ccccc2)cn3-c2ccc(F)cc2)cc1 | 4.8 | -5.2 | -11.6 | -2.7% | -14.3 | -13.4
CCC(C)Sc1ccc([C@@H]2[C@@H]3C(=O)N(CC)C(=O)[C@@H]3[C@]3(C(=O)OC)CCCCN23)cc1OC (stereo not given in full) | -0.5 | -2.5 | -8.4 | 4.8% | -4.3 | -1.9
CCN(c1ccccc1)S(=O)(=O)c1ccc(Cl)c(C(=O)NCCc2ccc(OC)cc2)c1 | 0.2 | -3.2 | 7.6 | 0.0% | -4.7 | 8.9
COc1ccc2c(c1)C(=O)N(c1ccccc1OC)C(=O)C2(C)C | -0.3 | 0.3 | 1.1 | -5.1%[38.3 µM] | 3.1 | -6.5
Cc1cc(NC(=O)NC2CCCN2S(=O)(=O)c2ccc(Cl)cc2)no1 (stereo not given) | -0.4 | -2.4 | 2.5 | 3.4% | 4.9 | 1.6
O=C(c1cccc(NS(=O)(=O)c2ccc(Br)cc2)c1)N1CCN(c2ccccc2O)CC1 | 1.5 | -4.8 | -5.5 | 3.6% | 5.6 | -22.9
Brc1ccc(-n2cccc2/C=N/n2cnnc2)cc1 | -1.0 | -12.5 | 0.6 | 1.5% | 7.9 | -8.9

3 entries from above, sorted by the value under D2 ag, ascending:
molecule | D2 ag | Six1-Eya2 inh | PINK1 modulator | CtBP-E1A inh | D2 PAM
CCC(C)Sc1ccc([C@@H]2[C@@H]3C(=O)N(CC)C(=O)[C@@H]3[C@]3(C(=O)OC)CCCCN23)cc1OC (stereo not given in full) | -2.5 | -8.4 | 4.8% | -4.3 | -1.9
O=C(CCN1C(=O)/C(=C/c2ccccc2Cl)SC1=S)NCCc1ccc(O)cc1 | -2.0 | -7.2 | 4.9% | -1.6 | -7.6
O=C(COC(=O)c1cc(Br)ccc1Cl)NC1CCCC1 | 3.4 | 2.5 | 1.3% | 7.1 | 2.5

(further entries)
SMILES | TRPML1 ag | D2 ag | Six1-Eya2 inh | PINK1 modulator | CtBP-E1A inh | D2 PAM
CCCCn1c(NC(=O)c2ccccc2Cl)c(C#N)c2nc3ccccc3nc21 | 2.4 | -6.4 | -3.1 | 39.8µM* | -12.1 | -21.3
Cc1cc(F)ccc1C(O)c1ncc(-c2ccc3ccccc3c2)[nH]1 (stereo not given) | 0.6 | -2.4 | -23.6 | 3.0% | ? | -11.9
O=C(CCc1ccccc1)N1CCN(C(=O)CCc2ccccc2)CC1 | 0.1 | -3.9 | 4.8 | -0.9% | -1.0 | -2.9
COc1ccc(OC)c(CCNC(=O)CCc2nnc3ccc(N4CCOCC4)nn23)c1 | -0.1 | -1.8 | -3.7 | 0.6% | -0.7 | -8.0
Nn1c(Cc2cccc3ccccc23)nnc1SCc1c(Cl)cccc1Cl | 0.0 | -3.7 | 1.0 | ? | 1.4 | -8.3
CN1CCC(C(=O)N2CCCC(C(=O)c3ccc4c5c(cccc35)CC4)C2)CC1 (stereo not given) | 0.5 | -5.0 | 7.7 | 12.6% | nt | -13.2
O=S1(=O)c2c(F)cccc2OC(COCc2ccccc2)CN1C1CCCC1 (stereo not given) | 2.6 | -0.9 | 17.2 | 1.8% | 15.6 | -1.2
O=C(CSc1n[nH]c(-c2ccc(S(=O)(=O)N3CCCCC3)cc2)n1)Nc1nccs1 | 1.3 | 0.5 | -4.2 | nt | 8.1 | -1.6
Cc1ccc(NC(=O)N2CCCCCC2)c(C)c1 | -0.5 | -1.6 | 5.8 | 1.6% | 3.9 | -4.4
Oc1ccc(/C=N/NC(=S)Nc2cccnc2)cc1O | -0.5 | 2.8 | -23.4 | -0.1% | -6.4 | 9.3
CCOc1ccc(OCCCN(C)C)cc1 | 2.1 | -0.9 | 0.7 | -3.4% | 0.5 | 3.0
C[C@@H](NC(=O)Cn1ccc(NC(=O)OCc2ccccc2)nc1=O)c1cccc2ccccc12 | -0.9 | 0.8 | -8.3 | 0.1% | -8.0 | -0.3
COc1cc(NCc2ccccc2)c2ncn(Cc3ccccc3)c2c1 | -0.2 | 5.2 | ? | 9.4% | -21.1 | -19.9
CCN(CCNC(=O)C1CCN(S(=O)(=O)c2cccc3nsnc23)CC1)c1ccccc1 | 0.2 | -1.5 | -4.9 | 0.0% | -1.1 | -5.8
CC(C)(C)Cc1cc(N)on1 | 1.2 | -5.7 | 5.4 | -0.5% | 5.5 | -16.0
CN1CCS/C1=C/C=C1\SC(=S)N(CC(=O)O)C1=O | 12.1 | -10.2 | -6.9 | 3.1% | -4.4 | -22.4
COc1ccc(CCn2c(SCCN3CCCCC3)nc3ccccc3c2=O)cc1OC | 1.0 | -1.6 | -3.0 | 0.2% | nt | -9.4
Cn1cnnc1SCC(=O)Nc1ccc(OC(F)F)cc1 | -0.3 | -1.1 | 0.6 | -0.4% | 13.9 | 2.6
CCN(CC(=O)Nc1ccc(N2CCOCC2)cc1)C(=O)c1ccc(C(F)(F)F)cc1 | 0.4 | -1.3 | 2.7 | -0.6% | 6.8 | -6.7
CCC(=O)Nc1ccc(-n2nnnc2SCC(=O)NNC(=O)c2ccco2)cc1 | nt | -3.5 | 0.2 | 0.7% | -16.9 | -8.6
Cc1cccc(C(=O)NC(CC(=O)O)c2ccc(OC3CCCC3)cc2)c1[N+](=O)[O-] (stereo not given) | 0.7 | 1.3 | -1.3 | 1.1% | 0.0 | -13.8
CCC(C)n1c(SCC(=O)NC2CCCC2)nc2ccccc2c1=O (stereo not given) | 0.2 | -3.4 | -2.9 | 0.3% | 1.4 | -16.8
Cc1ccsc1/C=C1\SC(N2CC(C)OC(C)C2)=NC1=O (stereo not given) | -0.1 | -3.7 | 8.0 | 4.9% | -1.7 | -1.8
Cc1cc(N2CCN(c3ccccc3F)CC2)nc2cc(O)ccc12 | 3.2 | -1.0 | 0.5 | 5.6% | -3.0 | -9.8
C/C(=N/NC(=O)CNC(=O)Cc1ccccc1)c1ccco1 | 0.3 | 3.8 | -0.9 | -0.6% | nt | -1.5
COc1ccc(F)cc1C(=O)C1CCCN(C(=O)CCc2ccccn2)C1 (stereo not given) | 1.3 | -2.0 | 6.8 | 1.6% | 2.7 | -8.7
O=C(Nn1cnnc1)c1ccc([N+](=O)[O-])cc1Cl | -0.4 | -3.9 | 6.6 | 2.5% | nt | -12.1
Cc1ccc(CNC(=O)c2ccc(Cn3nc(C)cc3C)o2)cc1 | 0.2 | 0.2 | 3.3 | -1.4% | nt | -8.8
Cc1cccc(Cn2c(=O)c3c(nc4n3CCN4Cc3ccco3)n(C)c2=O)c1 | -1.3 | -3.2 | ? | -0.2% | ? | -14.5
CC(=O)Nc1cccc(NC(=O)CCCC2CCCCC2)c1 | -0.8 | 4.2 | 0.9 | 0.3% | 5.1 | -10.7
Cc1cc(Cl)c2oc(C(=O)N3CCN(c4cnccn4)CC3)c(C)c2c1 | 1.2 | 2.2 | -0.8 | 5.1% | 0.9 | -9.5
CCCCCn1c(=NC(=O)c2cccnc2)c(C#N)cc2c(=O)n3cccc(C)c3nc21 | 0.1 | -0.2 | 19.7 | 1.6% | 1.1 | 3.6
C=CCSC(=S)NC1CCS(=O)(=O)C1 (stereo not given) | 0.4 | -2.0 | 6.9 | 5.0% | 9.3 | -5.3
O=C(NCC1CCCO1)C1CCC(=O)N1CCc1ccccc1 (stereo not given) | -0.3 | -2.3 | 3.2 | -0.8% | 9.1 | -17.8
Cc1cccc(NC(=S)NCC2CCCO2)c1 (stereo not given) | -1.0 | -0.5 | -5.8 | 0.5% | -3.0 | 18.8
CC(C)(C)NC(=O)c1cccc(NC(=O)c2ccco2)c1 | -0.6 | -0.3 | -13.4 | 1.9% | -1.2 | -9.8
COc1ccc(NC(=O)/C(C#N)=C/c2c(C)nn(-c3ccc(F)cc3)c2Cl)cc1OC | 1.3 | -4.6 | -7.0 | 1.2% | -7.3 | 0.1
Cc1ccccc1-n1c(SCC(=O)Nc2cccc3ccccc23)nc(O)cc1=O | 0.4 | -0.6 | -0.5 | 0.3% | -3.1 | -5.1
COc1ccc(/C=C2\C(=N)N3N=C(CC(=O)N4CCCCC4)SC3=NC2=O)cc1 | -0.6 | -2.6 | -3.1 | -1.3% | -4.5 | -3.8
COC(=O)C1CCN(C(=O)c2ccc(OC)c(S(=O)(=O)N3CCCc4ccccc43)c2)CC1 | 0.1 | 2.7 | -0.1 | -0.7% | 1.1 | -6.3
COc1ccc2nc(-c3ccccc3)cc(C(=O)OCC(=O)N3CCCCC3)c2c1 | 4.1 | 1.0 | 41.5 | 4.1% | 18.9 | -0.2
COc1ccc2cc(/C=C3\SC(=S)NC3=O)c(N3CCOCC3)nc2c1 | 0.6 | 3.2 | ? | ? | -5.3 | 19.8
O=C(C1CCC(=O)N1Cc1ccccc1Cl)N1CCN(c2cccc(Cl)c2)CC1 (stereo not given) | 0.9 | -4.7 | -7.5 | -0.4% | -0.8 | -22.0
O=C(Oc1cccccc1=O)c1ccccc1 | 0.4 | -6.3 | 0.7 | 1.1% | nt | -0.8
CC(=O)c1ccc(Oc2ncnc3sccc23)c(CN2CCOCC2)c1 | 0.5 | -5.3 | 1.9 | -0.3% | 0.6 | -6.6
O=C(Nc1ccc(S(=O)(=O)Nc2cnc3ccccc3n2)cc1)c1cccc(OC(F)F)c1 | -1.5 | -7.9 | -3.5 | 6.2% | 0.0 | -5.6
Cc1ccc(N(CC(=O)NCc2ccco2)S(=O)(=O)c2ccccc2)cc1 | 0.1 | -2.1 | -3.0 | 1.0% | -2.1 | -12.3
CC1Sc2ccc(S(=O)(=O)CCC(=O)NCc3ccccc3Cl)cc2NC1=O (stereo not given) | 1.0 | -1.0 | 0.9 | -0.1% | -3.4 | 7.0
COc1ccc(OC)c(NC(=O)CCNC(=O)N2CC(=O)Nc3ccccc32)c1 | -0.5 | -0.4 | 8.6 | -0.9% | -2.5 | -31.6
CC(C)(O)C(=O)N/N=C\c1ccc(OC/C=C/c2ccccc2)cc1 | 3.1 | 0.3 | 4.2 | 0.1% | 8.1 | 8.0
CCCC/C(C)=N/NC(=O)C(=O)NCCc1ccccc1 | 0.2 | -2.4 | 8.2 | 8.6% | 7.4 | -6.1
Cc1cccc(CN2[C@H](CO)C=CS2(=O)=O)c1 | 0.4 | -3.2 | 6.5 | -0.4% | 9.4 | -3.1
Cc1cc(OCC(=O)Nc2ccccc2N2CCOCC2)c(C(C)C)cc1Cl | 3.9 | 2.0 | 4.2 | 9.7% | 3.6 | -0.3
Cn1c2ccccc2c2nnc(SCC(=O)NC3CCCC3)nc21 | -0.3 | -3.0 | -13.5 | 1.9% | -0.9 | -1.7
